Screens from PubChem.
SARS PLP yeast = blocks SARS-CoV papain-like protease in a yeast assay. Potency, µM (doses to about 32.9 µM), for inactives: at the highest dose activity, positive = growth rescue. S. cerevisiae expressing SARS-CoV PLpro, growth rescue; control for the full effect not named in the record. 0.19% of 330,000 active; active means well fitted rising curve with a large enough effect; inconclusive means small, poorly fitted or top-dose-only effect; inactive means no such curve, though single readings can be large or run the other way; note: 0% is about no effect; nearly all actives have a fitted effect of over 55% in size; growth read by luminescence after 48 h
MARV entry inh = blocks Marburg virus binding to or entry into cells | Marburg virus pseudotyped entry inhibition, cell reporter; control for the full effect not named in the record; about a third of the inactives were read at about 46 µM | Potency, µM (doses to about 37.8 µM), inactives show at the top dose activity change, negative = inhibition, most hits filed as inhibitors | 1.8% of 300,000 active; active = well fitted inhibition curve with a large enough effect; inconclusive = small, poorly fitted or top-dose-only effect, or effect the other way; inactive = flat fitted curve, though single readings scatter; tested in HEK293 cells; about a fifth of its hits are not listed in these tables; note: % is set by controls: 0 for no effect and ±100 for the full control effect; luciferase read-out
Cruzain inh noDet = blocks cruzain activity in detergent-free assay; 2.3% of 200,000 active; AID 1476; purified cruzain, Z-FR-AMC fluorescence, no detergent; Potency, µM, for inactives: max response, negative = inhibition, usual class: inhibitors;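 note: plate controls were enzyme without inhibitor for no effect and buffer without enzyme for full effect; nearly all actives have a fitted effect of over 40% in size; top concentration of the series not given in the record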
Target sequence (P25779 123-467 limits assumed): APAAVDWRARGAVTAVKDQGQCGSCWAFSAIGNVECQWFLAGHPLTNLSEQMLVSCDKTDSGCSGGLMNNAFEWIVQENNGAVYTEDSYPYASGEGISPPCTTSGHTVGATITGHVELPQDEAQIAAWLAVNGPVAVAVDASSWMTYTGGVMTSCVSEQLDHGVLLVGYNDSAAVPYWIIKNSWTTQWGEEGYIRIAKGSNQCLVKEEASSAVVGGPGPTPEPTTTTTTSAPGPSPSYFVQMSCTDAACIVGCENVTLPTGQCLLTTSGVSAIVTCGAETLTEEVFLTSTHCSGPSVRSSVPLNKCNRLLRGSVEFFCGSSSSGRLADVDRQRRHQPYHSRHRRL
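Detergent-free condition (0.00005% Triton X-100) in acetate buffer pH 5.5 with DTT. 1.5 nM enzyme and compound were pre-mixed 15 min, then 2 uM Z-FR-AMC substrate added; reaction progress from fluorescence change between first and third reads (60 s).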
Lassa entry inh = blocks Lassa virus binding to or entry into cells; 1.2% of 300,000 active; Lassa virus pseudotype entry inhibition, cell reporter; control for the full effect not named in the record; Potency, µM (top dose mostly 37.9 µM), for inactives: at the top dose activity change, negative = inhibition, usual class: inhibitors; active means well fitted inhibition curve with a large enough effect; inconclusive means small, poorly fitted or top-dose-only effect, or effect the other way; inactive means flat fitted curve, though single readings scatter; tested in HEK293 cells; note: % is set by controls: 0 for no effect and ±100 for the full control effect; nearly all actives have a fitted effect of over 50% in size; luciferase read-out
2A StopGo = lowers the luciferase signal of an FMDV 2A StopGo reporter; human cells with a luciferase reporter of 2A StopGo recoding; control for the full effect not named in the record; Potency, µM (doses to about 57.9 µM), without a hit: at the highest dose signal change, negative = less light; 1.2% of 410,000 active; AID 1159524; active = well fitted falling curve with a large enough effect; inconclusive = small, poorly fitted or top-dose-only effect; inactive = no such curve, though single readings can be large or run the other way; tested in HEK293T cells; note: % is set by controls: 0 for no effect and ±100 for the full control effect; nearly all actives have a fitted effect of over 45% in size; luciferase light after 4 h
RE007 growth inh = less growth of the S. pombe RE007 Vpr strain; AID 651644; Potency, µM (highest dose often 92.2 µM), without a hit: at the top dose activity change, negative = less growth; 0.21% of 360,000 active; S. pombe RE007 Vpr strain, BacTiter-Glo ATP luminescence, 24 h; control for the full effect not named in the record; active = well fitted falling curve with a large enough effect; inconclusive = small, poorly fitted or top-dose-only effect; inactive = no such curve, though single readings can be large or run the other way;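 note: % is set by controls: 0 for no effect and ±100 for the full control effect; nearly all actives have a fitted effect of over 50% in size; the assay follows cell death caused by Vpr and the record does not say whether a fall means rescue or toxicity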
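Fission yeast strain RE007, carrying one chromosomally integrated HIV-1 vpr copy, was seeded at OD 0.01 in PMG+AL medium with 23 nL pinned compound. After 24 h at 30 °C and 99% humidity, viability was read by BacTiter-Glo luminescence.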
NS1 function inh = influenza NS1 inhibition | 0.4% of 270,000 active | Potency, µM (titrated, usually from 46.1 µM), inactives show at the top dose activity, positive = more growth | S. cerevisiae slowed by influenza A NS1, growth recovery by OD600 | AID 2326; active means well fitted rising curve with a large enough effect; inconclusive means small, poorly fitted or top-dose-only effect; inactive means no such curve, though single readings can be large or run the other way; note: nearly all actives have a fitted effect of over 50% in size
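S. cerevisiae expressing influenza A NS1, grown in glucose, washed, then diluted 1:100 into pH 6.0 -URA galactose medium with 23 nl compound. Growth recovery read as OD600; NS1-free strain serves as control.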
Cruzain inh Det = cruzain (T. cruzi) inhibition with detergent | P25779 | purified cruzain, Z-FR-AMC fluorescence, 0.01% Triton | Potency, µM, without a hit: max response, negative = inhibition, usual class: inhibitors | 0.43% of 200,000 active;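 note: plate controls were neutral wells for no effect and buffer without enzyme for full effect; nearly all actives have a fitted effect of over 40% in size; top concentration of the series not given in the record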
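Read-out: AMC fluorescence (360 nm excitation, 450 nm emission), four reads over 2 min, first-to-third difference used. Conditions: cruzain 1.5 nM, Z-FR-AMC 2 uM, pH 5.5 acetate, 5 mM DTT, 0.01% Triton X-100.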
Starred values were filed as active, the others as inactive; i = inactive; ? = inconclusive; nt = no result given; & = joins results of further samples; [ ] = another dose, or the depositor's remark. Unless noted, calls come from the whole dose curve; as a rule, active = well fitted curve in the direction sought with a large enough effect; inconclusive = small, poorly fitted or top-dose-only effect, or another doubt; inactive = no such curve, though single readings can be large; an effect the other way counts as inactive or inconclusive. Potency is the fitted concentration of half-maximal effect. Outcome played no part in choosing rows; overall some 4.7% were active at least once.

SMILES	SARS PLP yeast	MARV entry inh	Cruzain inh noDet	Lassa entry inh	2A StopGo	RE007 growth inh	NS1 function inh	Cruzain inh Det
CC(C)n1c(=O)c2oc3ccccc3c2n(Cc2ccccc2F)c1=O	nt	nt	14%	15%[46.1 µM]	-26%	nt	nt	0.2%
O=C(COC(=O)/C=C/c1cccc(C(F)(F)F)c1)NCc1ccccc1	?	?	?	-3%	-8%	-2%	11%	5.6%
O=C(Cc1ccccc1F)OCN1C(=O)c2ccccc2C1=O	?	nt	nt	nt	5%	10%	-3%	nt
CCCS(=O)(=O)c1ccc(COC(=O)c2ccc(NC(C)=O)cc2)cc1	-1%	14%[46.1 µM]	nt	-6%	-1%	-13%	-4%	nt
O=C(O)c1nccnc1C(=O)NCc1csc2ccc(Cl)cc12	1%	nt	nt	nt	26%	2%	1%	nt
CC(=O)c1ccc(NC(=O)N[C@@H](CC(C)C)C(=O)O)cc1	-8%	5%	-3%	-13%	-24%	0%	-6%	2.7%
Cc1cccc(-n2c(Cc3cc(=O)[nH]c(=O)[nH]3)nnc2SCC(=O)NCc2ccco2)c1	nt	-4%	nt	7%	-13%	12%	11%	nt
Cc1ccc(OCc2cc(C(=O)N3CCCC(O)C3)no2)cn1 (stereo not given)	?	nt	nt	nt	0%	3%	-7%	nt
c1ccc2oc(C3=NNC(=NC4CC4)SC3)cc2c1	-20%	1.8µM*	16µM*	7.3µM*	-54%	0%	-5%	-11%
CCc1cc2c(=O)c(-c3nc4ccccc4n3C)c(C)oc2c(CN2CCN(CCO)CC2)c1O	0%	-8%	-3%	4%	nt	i	-9%	6.1%
Cc1nn(-c2ccc(N3CCCCC3)nn2)c(C)c1CCC(=O)Nc1cc(F)ccc1F	?	?	nt	?	-11%	-8%	-12%	nt
CCCCn1nc2cc(C(=O)NC3CCCc4ccccc43)ccc2c1OCC (stereo not given)	-6%	nt	-3%	nt	29%	10%	5%	-1.4%
c1ccc(C2CCC(N3CCC(N4CCCCC4)CC3)CC2)cc1 (stereo not given)	1%	-1%	-3%	nt	nt	nt	-5%	11%
CCOC(=O)c1cc2c(=O)n3ccccc3nc2n(Cc2ccco2)c1=NC(=O)c1ccc(Br)cc1	nt	-16%[46.1 µM]	-1%	-4%[46.1 µM]	-10%	nt	nt	-7.8%
O=C(NCc1ccc(F)cc1)C(c1ccccc1)N(C(=O)c1csnn1)C1CC1 (stereo not given)	-1%	-19%	nt	?	4%	8%	0%	nt
Cn1c(=O)c2[nH]c(CCCCCCCc3nc4ccccc4[nH]3)nc2n(C)c1=O	nt	?	nt	-38%	16µM*	-13%	nt	nt
CCc1ccccc1NC(=O)Nc1nnc(N2CCCC2)s1	nt	3%[46.1 µM]	?	-22%[46.1 µM]	5%	nt	nt	-4.0%
COc1cc(/C(C)=N/NC(=O)c2nnn(-c3nonc3N)c2-c2cccs2)ccc1O	-2%	nt	nt	nt	?	-5%	0%	nt
COc1ccc(-c2cc(C(F)(F)F)n3nc(C)c(-c4ccccc4)c3n2)cc1OC	nt	-1%[46.1 µM]	8%	-10%[46.1 µM]	-15%	nt	nt	-0.3%
CCCn1c(N)c(N(CCOC)C(=O)c2ccc(-c3ccc(Cl)cc3)o2)c(=O)[nH]c1=O	-5%	8%	nt	5%	-9%	-7%	nt	nt
CCCCOc1c(Cl)cc(CNC(C)(C)CO)cc1OCC	4%	?	-11%	-30%	-1%	8%	-5%	0.5%
CCOC(=O)C1(Cc2cccc(OC)c2)CCCN(Cc2cc(C(C)C)n[nH]2)C1 (stereo not given)	-6%	?	nt	?	?	-20%	19%	nt
COCCN(C(=O)c1cccc(-n2cnnn2)c1)c1c(N)n(CC(C)C)c(=O)[nH]c1=O	nt	0%	nt	-7%	-4%	-1%	nt	nt
Cc1ccc(S(=O)(=O)NCC(=O)NCC(=O)N(C)Cc2ccc3ccccc3c2)cc1C	16%	?	nt	-22%	?	-15%	-1%	nt
Cc1cc(C)cc(NC(=S)NCCc2c[nH]c3ccccc23)c1	-94%	?	-2%	?	2%	0%	-20%	-12%
Cc1nc2ccccc2c(=O)n1NC(=O)c1cccc([N+](=O)[O-])c1	-1%	-8%[46.1 µM]	nt	12%	-10%	-3%	nt	nt
CN(C)c1ccc(C2N(C)C(=O)c3ccccc3N2C)cc1 (stereo not given)	-3%	-18%[46.1 µM]	nt	-28%[46.1 µM]	-24%	36%	-15%	nt
O=C(NCC1COc2ccccc2O1)C1(c2ccccc2)CCCC1 (stereo not given)	-1%	?	nt	0%[46.1 µM]	?	27%	-8%	nt
O=C(Nc1ccccc1F)c1cnccn1	-1%	2%[46.1 µM]	nt	1%	35%[activator]	0%	nt	nt
CC1CC(=O)Nc2ccccc2N1S(=O)(=O)c1cccs1 (stereo not given)	0%	-1%	nt	-16%	-2%	6%	1%	nt
CN(C(=O)CSc1nnc(-c2ccccc2F)n1N)C1CCCCC1	2%	-3%	nt	-4%	-13%	-16%	nt	nt
O=C(c1ccc(Cl)s1)N(Cc1nnc(-c2ccccc2Cl)o1)C1CC1	1%	-27%	nt	13%	8%	-11%	nt	nt
NC(=O)CCN1CCN(Cc2cn[nH]c2-c2cccc3ccccc23)CC1	1%	-10%[46.1 µM]	nt	?	20%	4%	2%	nt
C/C(CC(=O)NCc1ccc(Cl)cc1)=N\NC(=O)c1ccccc1F	-1%	?	nt	-2%	10%	1%	nt	nt
CCO[C@@H]1OC(C(=O)Nc2ccccc2)=C[C@H](c2ccccc2)[C@H]1CCCO	0%	nt	nt	nt	-16%	6%	-2%	nt
COc1ccccc1N/C(N)=N/c1nc(C(F)(F)F)cc(=O)[nH]1	-2%	?	nt	9%	-9%	-13%	nt	nt
Cc1cc(-n2c(C)cc(C(=O)CSc3nncn3C)c2C)no1	-24%	11%[46.1 µM]	nt	-7%[46.1 µM]	15%	-4%	nt	nt
CC(=O)Nc1ccc(C(=O)NC2CCSc3ccccc32)cc1 (stereo not given)	11%	-3%[46.1 µM]	nt	23%[46.1 µM]	5%	2%	-5%	nt
O=C(Oc1ccccc1N1CCOCC1)c1ccccc1	-1%	?	nt	-12%	-2%	-8%	-3%	nt
CCOC(=O)/C=C1\SCC(=O)N1CC(=O)NCc1cccc(Cl)c1	24%	4%	1%	20%	15%	-2%	6%	-3.8%
CN(Cc1ccccc1)c1ccc(-c2nc(-c3cccnc3)no2)cc1[N+](=O)[O-]	nt	3%[46.1 µM]	25µM*	0%[46.1 µM]	8%	nt	nt	-14%
CCOC(=O)c1c(C)[nH]c(C)c1S(=O)(=O)N(C)CC(=O)Nc1cccc(F)c1	-2%	nt	nt	nt	-2%	-23%	1%	nt
Cn1c(=O)c2ncn(CC(=O)NCCOCc3ccccc3Cl)c2n(C)c1=O	4%	-4%	-1%	0%	-27%	-2%	5%	-2.7%
Cc1ccc(NS(=O)(=O)c2cccc(C(=O)N3CCOCC3)c2)cc1	-7%	-1%	-1%	-2%	14%	-9%	-8%	0.1%
CN(Cc1ccccc1)C(=O)c1cc(-c2ccc(Br)cc2)on1	-18%	-3%	-15%	23%	71%[activator]	6%	-10%	-8.1%
Cc1cc(C)nc(NS(=O)(=O)c2ccc(N=Cc3c(C)[nH]n(-c4ccccc4)c3=O)cc2)n1	1%	?	?	0%	35%[activator]	-15%	6%	-1.4%
O=C(NC1CCN(Cc2ccccc2)CC1)c1ccccc1Cl	3%	nt	nt	nt	5%	-9%	-7%	nt
Cc1ccc(NC(=O)CCn2cc(C(F)(F)F)ccc2=O)cc1	-1%	?	nt	1%	-7%	1%	2%	nt
Cc1ccc(NC(NC(=O)OCCn2c([N+](=O)[O-])cnc2C)C(Cl)(Cl)Cl)cc1 (stereo not given)	-5%	13%	4%	-3%	nt	nt	7%	-7.6%
c1ccc(Cn2nnc3c(N4CCN(Cc5ccc6c(c5)OCO6)CC4)ncnc32)cc1	-3%	?	0%	-14%	?	-13%	-50%	-5.9%

(listing goes on)
SMILES	SARS PLP yeast	MARV entry inh	Cruzain inh noDet	Lassa entry inh	2A StopGo	RE007 growth inh	NS1 function inh	Cruzain inh Det
Cc1ccccc1Nc1c(-c2ccc(N3CCOCC3)cc2)nc2ncccn12	0%	?	19%	8%[46.1 µM]	29%&-1%	14%	nt	-13%
O=C(CCCOc1ccccc1)Nc1nnc(C2CCCO2)s1 (stereo not given)	12%	1%	-15%	1%	27%	-16%	3%	4.2%
CC(=O)Nc1ccc(NC(=O)C(C)OC(=O)c2ccc3[nH]c(C)c(C)c3c2)cc1 (stereo not given)	1%	-11%[46.1 µM]	nt	?	12%	6%	nt	nt
COc1ccc(-c2cc(C)no2)cc1S(=O)(=O)NCCCN1CCN(c2ccccc2)CC1	1%	nt	nt	nt	?	-11%	-16%	nt
Cc1ccc(N(CC(=O)NCc2ccncc2)S(C)(=O)=O)cc1	-1%	?	-16%	-3%	-32%	19%	24%	-3.9%
O=C(CCS(=O)(=O)c1cccc2nonc12)N1CCN(c2ccc(F)cc2)CC1	9%	-1%&-1%	-1%	-1%	-6%	-11%	-1%	0.8%
N/C(=N\OC(=O)CSc1ccccc1)c1ccc([N+](=O)[O-])cc1	-22%	4%	-12%	-5%	39%[activator]	0%	-10%	-16%
COc1ccc(OC)c(CCNC(=O)c2nn(C)c3c2CSc2ccccc2-3)c1	nt	8%[46.1 µM]	12%	-18%[46.1 µM]	-14%	nt	nt	-3.7%
CC[n+]1c(C)n(C)c2cc(S(=O)(=O)N(C)C)ccc21	1%	20%[14.2 µM]	nt	20%	-4%	6%	1%	nt
CCC(C)NC(=O)c1cccc(NC(=O)c2nsc3ccccc23)c1 (stereo not given)	nt	nt	-1%	?	18%	nt	nt	-1.5%
CN1C(=O)C(O)(CC(=O)/C=C\c2ccc3c(c2)OCO3)c2ccccc21 (stereo not given)	0%	?	nt	-29%	?	-30%	-7%	nt
C(=N\N1CCN(c2ccccn2)CC1)/c1ccco1	0%	?	nt	-8%[46.1 µM]	18%	-8%	nt	nt
Cc1cc(C)nc(N/N=C/c2ccco2)n1	-1%	18%	-2%	28%	13%	-10%	6%	-3.4%
COc1ccc(C(=O)Cc2cc3ccccc3oc2=O)cc1	0%	nt	nt	nt	59%[activator]	25%	3%	nt
